Screening data as filed in PubChem.
MLL AF4-AF9 inh: inhibitors of AF4 peptide binding to AF9, primary screen, biochemical, AlphaScreen, biotin-AF4 peptide, FLAG-AF9, single point | inhibition, % at 10 µM | 350,000 tested, 0.47% active;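 active means every replicate reaching a set inhibition limit, whatever the replicate mean, cut at about 25% in these data; inconclusive means mean inhibition reaches that limit but some replicates miss it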;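 further: 0% = plate neutral control median and 100% = total signal loss; the record names both 10 and 1 µM as test concentration; the first replicate is given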
Target sequence (P42568 whole entry, looked up): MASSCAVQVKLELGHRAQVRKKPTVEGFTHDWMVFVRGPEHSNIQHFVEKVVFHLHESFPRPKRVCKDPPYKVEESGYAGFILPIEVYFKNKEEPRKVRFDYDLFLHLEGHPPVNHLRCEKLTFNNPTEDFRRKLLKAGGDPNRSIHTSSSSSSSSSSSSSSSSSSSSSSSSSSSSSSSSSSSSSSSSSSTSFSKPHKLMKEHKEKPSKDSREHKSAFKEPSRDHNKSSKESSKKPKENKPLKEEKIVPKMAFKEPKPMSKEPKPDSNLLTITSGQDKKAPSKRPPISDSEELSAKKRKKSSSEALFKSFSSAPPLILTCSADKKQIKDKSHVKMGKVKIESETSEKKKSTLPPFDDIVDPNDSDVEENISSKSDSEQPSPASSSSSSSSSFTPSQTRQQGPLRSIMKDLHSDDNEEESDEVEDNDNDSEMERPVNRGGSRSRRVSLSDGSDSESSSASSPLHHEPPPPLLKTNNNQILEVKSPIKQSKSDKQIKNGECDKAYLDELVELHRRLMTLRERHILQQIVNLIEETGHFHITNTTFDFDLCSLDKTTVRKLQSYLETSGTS
HNF4A DNA FP: change in binding of human HNF4A to DNA, primary screen, biochemical, fluorescence polarization, FITC-DNA | Hepatocyte nuclear factor 4-alpha (Homo sapiens), P41235 | 1 h | activity change, % at 10 µM | 360,000 tested, 0.3% active | AID 1224865, 2016; in the data active means activity change above about 30%, passing the limit was not always enough;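 further: controls were the assay level and a saturating level of protein; the project sought stronger binding though the title names inhibitors; some compounds called inactive have numbers as strong as hits; positive values seem to mean higher polarization but the record does not say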
Vif TR-FRET: inhibitors of Vif binding to APOBEC3G peptide, primary screen, biochemical, TR-FRET, GST-Vif 1-94, biotin-A3G peptide, dose response retest (AID 1117319); TR-FRET GST-Vif / biotin-A3G peptide binding; higher % means a stronger effect; test concentration not given here; strong numbers were not always called active; 260,000 tested, 0.57% active; Virion infectivity factor (Human immunodeficiency virus type 1 group M subtype B (isolate …; inhibition, %; hits with a dose series show IC50 in µM;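 active means above the screen mean plus three standard deviations and confirmed in dose response; inconclusive means results disagree or hit not tested in dose response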;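 further: Vif residues 1-94 fused to GST binding biotinylated APOBEC3G peptide 110-148; 0% = full assay without inhibitor and 100% = GST in place of GST-Vif; retest series ran down from 100 µM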
UCH37 DUB inh: inhibitors of human UCH37 deubiquitinase, primary screen, biochemical, Ub-AMC cleavage, fluorescence. Ubiquitin carboxyl-terminal hydrolase isozyme L5 (Homo sapiens), Q9Y5K5. purified proteasome/UCH37. inhibition, % (no concentration beside the values). 330,000 tested, 0.33% active;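 active means mean of two replicates above 20%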;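 further: 0% = compound-free wells with enzyme and 100% = wells lacking proteasome; stock transfer was 100 nL into about 20 µL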
Target sequence (Q9Y5K5 whole entry, looked up): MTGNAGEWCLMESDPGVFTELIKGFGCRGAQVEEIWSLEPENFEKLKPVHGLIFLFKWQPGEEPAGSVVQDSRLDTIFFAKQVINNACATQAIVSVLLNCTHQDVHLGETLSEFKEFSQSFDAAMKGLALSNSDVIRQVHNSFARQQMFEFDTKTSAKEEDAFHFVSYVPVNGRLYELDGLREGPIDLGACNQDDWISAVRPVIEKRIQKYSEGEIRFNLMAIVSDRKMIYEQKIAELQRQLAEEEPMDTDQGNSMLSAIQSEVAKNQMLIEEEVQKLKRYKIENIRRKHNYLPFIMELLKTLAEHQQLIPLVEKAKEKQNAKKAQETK
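System: Proteasome-associated human UCH37 deubiquitinase; Input: 0.15 nM proteasome in added enzyme buffer; Also added: Ub-AMC substrate from 1 µM stock; Incubation: 30 min compound-proteasome preincubation then 25 min substrate reaction, room temperature; Detection: fluorescence, ex 355 nm, em 460 nm; Read-out: % inhibition of Ub-AMC cleavage fluorescence; Benchmarks: no-proteasome and no-compound wells.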
RanGTP-Imp inh: inhibitors of RanGTP-importin-beta interaction, primary screen, biochemical, FRET, CFP-Ran, YFP-importin-beta, homogeneous; AID 2216, 2009; cell-free CFP-Ran/YFP-importin-beta FRET ratio; 300,000 tested, 1.1% active; inhibition, % (concentration not given with the values);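 active means most replicates above 15%; inconclusive means exactly half above 15%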;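 further: 0% = DMSO wells and 100% = Ran loaded with GDP instead of GTP; wells of about 40 µL received 100 nL stock; the first replicate is given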
FGF22 binding: binders of human FGF22 protein, primary screen, FGF22 synaptogenesis inhibitor project, biophysical, thermal shift, single point; recombinant FGF22 thermal shift, SYPRO orange fluorescence; percent of sucrose octasulfate shift, DMSO zero; calls only at 9.99 µM; 340,000 tested, 1.5% active;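 active means melting point raised past a set limit in the mean and every replicate; inconclusive means no clear call; three in four hits are not shown here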
Target sequence (Q9HCT0 whole entry, looked up): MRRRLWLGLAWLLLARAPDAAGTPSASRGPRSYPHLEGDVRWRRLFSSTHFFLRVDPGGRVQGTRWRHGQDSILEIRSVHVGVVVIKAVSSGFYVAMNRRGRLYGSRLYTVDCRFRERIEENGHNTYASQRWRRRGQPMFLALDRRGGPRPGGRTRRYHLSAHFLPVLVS
Ecoli growth: E. coli growth inhibition, primary screen, OD600; AID 1053175, 2014; Escherichia coli growth, 23 h; hits give low values; OD600 absorbance (no concentration beside the values); 330,000 tested, 0.21% active;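 active means OD600 absorbance below the run mean of sample wells minus 3.6 SD, in any replicate, cut at about 0.56 in these data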;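 further: stock transfer was 300 nL into about 60 µL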
An asterisk follows results filed as active; i = inactive; ? = inconclusive; · = no result given.

Results follow in this order: MLL AF4-AF9 inh, HNF4A DNA FP, Vif TR-FRET, UCH37 DUB inh, RanGTP-Imp inh, FGF22 binding, Ecoli growth
O=[N+]([O-])c1cc(Cl)c(Cl)c(Cl)c1Cl
 : ·, 0.9, ·, -1.4, ·, i, 0.667
Cc1cccc(NNC(=O)C2CCC2)c1
 : -0.1, 3.6, -4.8%, 4.1, -1.5, i, 0.686
Cc1ccc(NC(=O)N2CCCC2)cc1Cl
 : -4.0, -0.6, ·, 2.3, 2.6, i, 0.609
Cc1ccc(S(=O)(=O)N(C)C)cc1NC(=O)COC(=O)C1(c2ccccc2)CC1
 : -28.7, 5.5, -4.6%, -2.5, -0.6, i, 0.66
COc1cc2c(C#N)c(N3CCCCC3)nc(N)c2c(N)n1
 : ·, 15.8, 14.3%, -36.2, 4.4, ·, 0.701
COc1ccc(/C=C2/SC(=O)N(CCC(=O)Nc3ccccc3C(=O)O)C2=S)cc1
 : -0.6, -0.2, 0.0%, 4.3, 1.6, i, 0.645
Cc1cc(C)n(C/C=C/Cn2nc(C)cc2C)n1
 : 3.3, 1.3, -2.3%, 2.0, 1.0, i, 0.69
CCOC1=C2[C@@H](CN(S(=O)(=O)c3ccc(C)cc3)[C@H]2c2cccc3ccccc23)[C@H]2C(=O)N(C3CCCCC3)C(=O)[C@H]2C1
 : 0.8, 1.7, ·, ·, ·, i, ·
CNc1nc(N2CCc3ccccc32)ncc1F
 : ·, 1.9, 0.2%, -1.1, 5.8, ·, 0.676
COc1ccc(-c2ccc(C#N)c(SCC(=O)NCc3ccco3)n2)cc1OC
 : -3.8, 2.4, 24.9%, i, -1.5, i, 0.699
O=C(c1cnn2c(C(F)F)cc(-c3ccccc3)nc12)N1CCCCC1c1cccnc1 (stereo not drawn)
 : 6.8, -3.2, ·, -13.5, 2.4, i, 0.673
O=C(Nc1ccc(Cl)c(Cl)c1)Nc1cc(S(=O)(=O)N2CCOCC2)ccc1N1CCCC1
 : ·, -0.7, 4.1%, 0.9, -2.4, ·, 0.685
C/C(=C\C(=O)c1ccc(Cl)cc1)Nc1ccc(Br)cc1
 : ·, -0.4, 6.8%, 3.4, -2.2, ·, 0.756
CC(=O)c1nc(N2C(=O)CC(Cc3ccccc3)C2=O)sc1C (stereo not drawn)
 : 0.8, 0.3, ·, 3.3, -1.2, i, 0.689
COc1ccccc1-c1nc(SCC(=O)O)n[nH]1
 : ·, 2.0, 3.1%, 3.5, 0.2, ·, 0.72
O=C(O)/C=C/c1cn(Cc2ccccc2)nc1-c1ccc(Cl)cc1
 : 1.9, -1.7, -6.4%, 3.2, 1.1, i, 0.704
O=C1N[C@H](Cc2ccccc2)COC(=O)[C@H](Cc2ccc(F)cc2)C/C=C\C[C@H]1CC(=O)N(CCO)Cc1ccccc1
 : -3.3, -2.0, ·, 2.2, ·, i, ·
O=C(Cn1c(-c2ccccc2)noc1=O)N1CCC(Cc2ccccc2)CC1
 : -0.4, -3.0, ·, -0.9, 3.8, i, 0.659
CC12CN3CCN(CC(C3)/C1=N\NC(=O)c1ccccc1N)C2
 : -1.3, -1.0, -2.8%, ·, 3.7, i, ·
COc1ccc(CCN(C)Cc2c(O)ccc3ccccc23)cc1OC
 : 1.7, -0.2, 2.3%, -9.3, 5.7, i, 0.674
COc1cccc(OCC(O)CN2CC(C)CC(C)C2)c1 (stereo not drawn)
 : ·, 2.5, -3.3%, -0.2, -2.9, ·, 0.722
COC(=O)C(C)C1Sc2ccccc2NC1=O (stereo not drawn)
 : ·, -3.9, -2.0%, 3.8, -0.2, ·, 0.678
CC(=O)Nc1ccc(O)cc1[N+](=O)[O-]
 : -3.1, 1.4, ·, 2.1, -0.2, i, 0.679
CCC1S/C(=C(\C#N)C(=O)NCc2ccco2)N(c2ccc(Br)cc2)C1=O (stereo not drawn)
 : ·, -1.7, 11.1%, 6.0, 1.9, ·, 0.801
COc1ccc(NC(=O)CN(C)C(=O)c2cc(-c3ccc(C)o3)nc3ccccc23)cc1
 : -8.3, 1.4, -5.6%, -398.8, 3.5, i, 0.686
Cc1cccc(C(=O)OCC(=O)Nc2nccs2)c1
 : ·, 2.8, 7.7%, -0.4, -0.9, ·, 0.755
COc1ccc(N2CCN(C3CC(=O)N(Cc4ccc(N5CCCC5=O)cc4)C3=O)CC2)cc1 (stereo not drawn)
 : ·, -3.3, 15.0%, 1.9, 1.1, ·, 0.733
Cc1ccc(CC(=O)Nc2ncc([N+](=O)[O-])s2)cc1
 : -0.6, 3.2, 2.5%, 2.1, 3.1, i, 0.557
O=c1cc[nH]c2ccc(OC(F)(F)F)cc12
 : ·, -2.6, 3.4%, 7.9, -4.1, i, 0.646
O=C(NC(c1ccccc1)c1ccccc1)C1CCCO1 (stereo not drawn)
 : -1.1, -2.0, 6.6%, -2.0, -0.8, i, 0.737
CC(C)NS(=O)(=O)c1ccc(OCC(=O)NCc2ccco2)cc1
 : 0.1, 5.7, ·, -1.5, -3.4, i, 0.655
O=C(O)CSCCc1ccccn1
 : ·, -0.4, 2.9%, 3.6, 1.3, ·, 0.779
O=C(CSc1ncccn1)NC(=O)c1ccccc1
 : -3.0, 1.4, 0.3%, 3.0, 2.1, i, 0.725
Cc1ccc(S(=O)(=O)N2CCCC2C(=O)Nc2nccs2)cc1 (stereo not drawn)
 : ·, -0.1, -1.0%, 1.4, 5.0, ·, 0.713
COc1ccc(-c2cc(=O)c3cc(F)ccc3[nH]2)cc1
 : 4.0, -0.9, -6.7%, -13.1, 4.9, i, ·
Cc1csc(=O)n1CCC(=O)OCC(=O)N(C)c1c(N)n(Cc2ccccc2)c(=O)[nH]c1=O
 : -1.0, -0.9, ·, ·, ·, i, ·
CCOC(=O)CC1C(=O)NCCN1C(=O)c1cc2c(=O)n3cccc(C)c3nc2s1 (stereo not drawn)
 : -6.5, 4.8, -3.3%, i, -3.8, i, 0.75
CC(C)C[C@@H](CN1CCC[C@H]1CN1C(=O)C(=O)NC[C@@H]1Cc1ccc(O)cc1)N1C[C@H](Cc2ccc(O)cc2)N(CCc2ccccc2)C(=O)C1=O
 : 0.5, -2.4, ·, ·, ·, i, ·
COc1ccccc1CNC(=O)COC(=O)c1ccc(-n2cnnn2)cc1
 : -2.0, 4.9, -1.1%, 0.8, ?, i, 0.656
CC(O)c1cccc(-c2ccc(CN3C[C@]4(CO)O[C@@H](CO)C[C@@H]4S3(=O)=O)cc2)c1 (stereo partly drawn)
 : -1.8, 1.1, ·, 2.8, ·, i, 0.697
COc1cccc(OCC(=O)Nc2c3c(nn2-c2ccc(F)cc2)CS(=O)(=O)C3)c1
 : -1.4, 1.1, ·, 3.4, -0.9, i, 0.663
CC1CN(C(=O)c2cc3cc(Cl)cc(Cl)c3oc2=O)CC(C)O1 (stereo not drawn)
 : ·, 0.0, 13.1%, 4.9, -0.6, ·, 0.716
O=C(CSc1ccsc1[N+](=O)[O-])NC1CCCC1
 : -2.1, -8.5, 16.9%, 6.0, -4.7, i, 0.653
Cc1cc(/C=C2/NC(=O)N(c3ccccc3)C2=O)c(C)n1-c1cccnc1
 : 8.4, 3.5, 5.8%, ·, 0.5, i, ·
Cc1nc(C(=O)NCC(=O)c2ccc(Cl)cc2)c(C(F)(F)F)o1
 : 12.9, -1.6, ·, 1.8, -2.3, i, 0.708
O=C(NCc1nnnn1-c1ccc(F)cc1)c1cc2ccccc2o1
 : -0.6, -5.0, 3.9%, ·, ·, i, ·
COc1ccc(OCc2cc(C(=O)N[C@H]3CCCCNC3=O)no2)c(Cl)c1
 : -5.1, 1.8, ·, 2.2, 7.0, i, 0.709
CC12C(=O)N(n3cnnc3)C(=O)C1C1C=CC2C1 (stereo not drawn)
 : ·, -0.4, 0.3%, 5.2, -2.8, ·, 0.743
COC(=O)C1CCN(Cc2cc(=O)oc3cc(C)c(Cl)cc23)CC1
 : -6.4, -0.4, -12.4%, 2.2, -0.6, i, 0.66
CC(=O)OC(C(=O)NC1CCCCC1)c1cccc(F)c1 (stereo not drawn)
 : -2.2, -1.8, -1.4%, 0.4, -1.2, i, 0.662
Cc1ccnc(SCc2cn3c(C)cc(C)nc3n2)n1
 : -1.2, -1.8, -5.4%, -154.0, -1.7, ·, 0.688
COc1cccc(C2=CC(c3ccccc3)n3nnnc3N2)c1 (stereo not drawn)
 : -0.2, -4.3, 14.3%, -0.6, -30.8, i, 0.65
O=C(Nc1ccccc1)c1ccc(N2CCN(c3ccccc3)CC2)c(S(=O)(=O)N2CCOCC2)c1
 : ·, -1.3, -37.3%, -3.3, 1.7, ·, 0.696
O=C(CS(=O)CC(=O)N(CC(=O)NC1CCCC1)c1ccccc1F)Nc1ccc(F)cc1 (stereo not drawn)
 : -0.2, 5.5, ·, 1.9, -0.3, i, 0.656
Cc1cccc2c(=O)c(C(=O)N3CCCCCC3)c[nH]c12
 : ·, 9.1, -2.8%, 4.4, 3.1, ·, 0.677
O=C(/C=C/c1ccccc1)Nc1cccnc1Cl
 : -1.0, -3.4, -5.9%, 1.9, -3.5, i, 0.609
O=C(c1ccco1)N(CCC(c1ccccc1)c1ccco1)Cc1ccco1 (stereo not drawn)
 : -9.1, -25.4, ?, 2.8, 6.4, ·, 0.672
N#Cc1cccc(NC(=O)COC(=O)Cn2nc(-c3ccccc3)oc2=O)c1
 : -1.2, -1.2, -2.9%, 4.0, ·, i, 0.631
O=C(COc1ccccc1[N+](=O)[O-])Nc1ccc(CN2CCOCC2)cc1
 : -0.3, -0.9, -14.1%, 0.1, 0.9, ·, 0.669
CCOC(=O)C1CCN(C(=O)C2CCN(S(=O)(=O)c3cc(Cl)ccc3OCC)CC2)CC1
 : -2.4, 1.6, ·, -2.3, ·, i, 0.727

Carrying on.
Results follow in this order: MLL AF4-AF9 inh, HNF4A DNA FP, Vif TR-FRET, UCH37 DUB inh, RanGTP-Imp inh, FGF22 binding, Ecoli growth
C=CCOC(Cn1ccnc1)c1ccc(Cl)cc1Cl (stereo not drawn)
 : -0.1, 0.5, -1.0%, 1.2, ·, i, 0.619
CCOc1ccc(NC(=O)c2ccccc2CO)cc1
 : ·, -1.4, 0.8%, 0.6, 0.6, ·, 0.748
CC(=O)Nc1ccc(S(=O)(=O)Nc2ccc3[nH]c(=O)[nH]c3c2)cc1
 : -4.6, -2.2, -6.3%, 4.7, 7.5, i, 0.696
Cc1ccc(S(=O)(=O)n2cnc(C)c2)cc1
 : 3.1, -0.8, 1.1%, -1.3, -4.0, i, 0.657
O=C(Nc1ccc(Cn2cccn2)cc1)c1ccc(COc2ccccc2Br)cc1
 : ·, -0.1, -1.2%, 1.5, -4.7, ·, 0.702
Cn1c(=O)cc(Nc2ccc(Cl)cc2)[nH]c1=O
 : -0.2, -0.8, -2.4%, 2.3, 2.0, i, 0.667
O=C(COc1ccccc1Cl)NC(=S)Nc1ccccc1N1CCCC1
 : 3.9, -0.8, -9.1%, 18.6, -6.0, i, 0.711
COc1ccc(F)cc1S(=O)(=O)N1CCN(Cc2ccc3c(c2)OCO3)CC1
 : ·, -1.7, 1.2%, 3.7, 2.0, ·, 0.76
C/C(=N\NC(=O)c1ccc(Cl)c(S(=O)(=O)Nc2ccccc2Cl)c1)c1ccncc1
 : ·, 2.6, 1.2%, ·, -5.2, ·, ·
Cc1cc(SCC(=O)OC/C(O)=C(\C#N)c2nc3ccccc3[nH]2)c(C)cc1Br
 : -1.0, 12.2, ·, ·, 2.2, i, ·
COc1ccc(Cn2c(CCC(=O)N3CCN(c4ccccn4)CC3)nc3ncccc3c2=O)cc1
 : ·, 0.5, -2.9%, 0.2, ·, ·, 0.753

Not all compounds are listed; rates above refer to the full screens.
